Screening data: PubChem BioAssay, Center for Chemical Genomics, University of Michigan
CDC25B CDK2 inh – human CDC25B-CDK2/CyclinA binding inhibition | actives 0.72% (n = 94,000) | P30305+P24941 | AID 1259370 | z-score (no concentration beside the values) | HTRF CDC25B-CDK2/CyclinA binding, anti-His/anti-Flag; stronger effect = higher value;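 note: score is relative to mean and SD of negative controls; strong numbers were not always called active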
HIV TAR-Tat – HIV-1 TAR-Tat binding disruption; HIV-1 TAR RNA, Tat peptide displacement FRET; stronger effect = higher value; z-score (test concentration not listed); actives 0.6% (n = 100,000); AID 1259389;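 note: score is relative to mean and SD of negative controls; some compounds called inactive have numbers as strong as hits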
* hit, by the source's call; x = not tested or not shown.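 Rule for the calls: active = z-score from 3 up in half or more of its runs; inactive = the rest.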

cpd	canonical_smiles	CDC25B CDK2 inh	HIV TAR-Tat
1	O=C1CC(=O)Nc2cc(S(=O)(=O)Nc3ccccc3Br)ccc2N1	-2	-1
2	CCCCCCCn1c(CN2CCCCC2C)nc2c1c(=O)n(C)c(=O)n2C (configuration not stated)	-0.33	0.51
3	O=C(CS(=O)(=O)c1ccc2c(c1)S(=O)(=O)N=CN2)Nc1ccc(F)cc1Cl	x	1.2
4	CCCS(=O)(=O)c1ccc2c(c1)S(=O)(=O)N=CN2	x	0.02
5	CCOc1cc(C2c3c(-c4cc(C)ccc4O)n[nH]c3C(=O)N2CCOC)ccc1O (configuration not stated)	-0.6	-3
6	Cc1ccn2cc(-c3ccc(F)cc3)cc2c1	-0.53	x
7	COc1ccc(Nc2ccnc3ccccc23)cc1	0.15	1.4
8	COC(=O)C(O)C(Sc1ccccc1N)c1ccccc1 (configuration not stated)	-2.3	2.5
9	CC(C)c1ccc(S(=O)(=O)c2nnn3c2nc(N2CCC(C(N)=O)CC2)c2sccc23)cc1	x	-0.38
10	CCOc1ccc(-c2cc(N)n(S(=O)(=O)c3cccc4nsnc34)n2)cc1	-0.44	1
11	CC(=O)O[C@H]1CC[C@]2(C)C3CC(=O)[C@]4(C)C(C(C)=O)=CCC4C3CC[C@H]2C1 (some centres not stated)	x	-1
12	COc1ccc(S(=O)(=O)c2cnc3ccc(OC)cc3c2N2CCN(C)CC2)cc1	-1.4	0.33
13	Cc1cc(C)c2oc(-c3cc(NC(=O)c4ccc([N+](=O)[O-])c(C)c4)ccc3O)nc2c1	-1.5	x
14	CC(C)CNC(=O)C1Sc2nnc(-c3ccccc3)n2NC1c1ccccc1 (configuration not stated)	-2.3	-0.2
15	Cc1nc2c(-c3ccc(F)cc3)c(C)nn2c(C)c1CCC(=O)Nc1cc(F)ccc1F	-0.86	x
16	OCCN1CN=C(SCc2ccccc2)NC1	0.42	x
17	CCOC(=O)C(=CNc1cc(C(F)(F)F)ccc1N1CCOCC1)C(=O)OCC	-0.84	x
18	CC(=O)N1N=C(c2ccc(Cl)cc2)OC12CCCC2	0.37	x
19	Cc1ccc(C(=O)c2cn(Cc3ccc(F)cc3)c3nc(C)ccc3c2=O)cc1	-1.1	0.79
20	Fc1ccccc1CN1CCc2nc(Nc3ccc4c(c3)OCO4)ncc2C1	x	2.4
21	Cc1ccc(C(CNC(=O)c2ccco2)N(C)C)o1 (configuration not stated)	-0.66	0.76
22	COc1ccc(N2CSC3=C(C#N)C(c4ccc(O)c(OC)c4)CC(=O)N3C2)cc1 (configuration not stated)	4*	-1.6
23	Cc1cc(C)n2nc(NCc3ccccc3)nc2n1	-0.65	0.13
24	COc1cccc(NC(=O)NCc2nnnn2-c2ccccc2)c1OC	x	1.2
25	O=C(Cn1c(=O)c2cccn2c2cccnc21)NCCC1=CCCCC1	x	-0.38

Grouped by structure: the compounds so far containing a Cl atom.
cpd	canonical_smiles	CDC25B CDK2 inh	HIV TAR-Tat
3	O=C(CS(=O)(=O)c1ccc2c(c1)S(=O)(=O)N=CN2)Nc1ccc(F)cc1Cl	x	1.2
18	CC(=O)N1N=C(c2ccc(Cl)cc2)OC12CCCC2	0.37	x

(listing goes on)
cpd	canonical_smiles	CDC25B CDK2 inh	HIV TAR-Tat
26	Cn1nc(C(=O)N2CCCCC2)c2c1-c1ccccc1SC2	-0.24	1.1
27	COc1ccc(S(=O)(=O)N2CCc3cc4ccccc4nc32)cc1OC	-1.7	-0.74
28	COc1ccc(N2CCn3c(nc4ccccc43)C2)cc1NS(C)(=O)=O	-1.7	-8.2
29	CCCCn1c(Cn2ccnc2C)nc2cc(NC(=O)C3CCCCC3)ccc21	1.4	1.4
30	CC1(C)CC(=O)c2c(oc3ccc(NS(=O)(=O)c4cc(Cl)ccc4Cl)cc23)C1	-2.8	x
31	CCC1(CC)Cc2ccccc2-c2nc(CSc3nc4ccccc4c(=O)n3C)[nH]c(=O)c21	-1.9	1.5
32	Cc1cc(C)n(CNc2nonc2C)n1	-1.6	x
33	COCCOC(=O)C1=C(C)Nc2nc3ccccc3n2C1c1cccc(OC)c1OC (configuration not stated)	-0.07	-0.33
34	COc1ccc(OC)c(NS(=O)(=O)c2ccc3c(c2)NC(=O)CCS3)c1	x	2
35	CSc1nnc2c(n1)OC(C)=Nc1ccc(Br)cc1-2	-0.39	1.5
36	CCCC(=O)Nc1nc2cc(NS(=O)(=O)c3c(C)nn(C)c3C)ccc2s1	x	2.4
37	Cc1cc2nc(CSc3nc4ccccc4[nH]3)cc(=O)n2o1	-1.5	1.5
38	COC(=O)c1ccc(C2Oc3c(OC)cccc3C3CC(c4cccs4)=NN32)cc1 (configuration not stated)	-1.8	-0.14
39	CCc1c(C)nc(-n2nc(C)cc2NC(=O)C2c3ccccc3Oc3ccccc32)[nH]c1=O	x	-0.31
40	O=C(c1ccc2c(c1)OCO2)N1CCC(O)(C2CCN3Cc4ccccc4N=C23)CC1 (configuration not stated)	x	0.54
41	NC(=O)NCCc1nc2ccccc2[nH]1	-0.51	1.2
42	COCCNc1nc2c(S(=O)(=O)c3ccccc3)nnn2c2ccc(Cl)cc12	-1.5	-0.96
43	CC1CCN(c2ncnc3onc(-c4ccc(Cl)cc4)c23)CC1	-0.91	2.5
44	COC(=O)CCCC(=O)Nc1ccc2[nH]c(=O)oc2c1	x	-0.43
45	Cc1ccc(N2Cc3ccncc3C2=O)cc1F	x	0.78
46	CCOC(=O)c1c(NC(=O)CC)sc(C)c1C	-1.8	2.3
47	CCN(CC)c1ccc(NS(=O)(=O)c2cc3[nH]c4c(c3cc2C)C(=O)CCC4)c(C)c1	x	-1.3
48	COc1cccc(C2c3c(oc4ccccc4c3=O)C(=O)N2c2ccccn2)c1 (configuration not stated)	-0.81	0.77
49	Cc1ccc(CSc2n[nH]c(N)n2)cc1	-0.87	x
50	Cc1ccc(S(=O)(=O)N2CCC(C(=O)O)CC2)c2nsnc12	x	1.7
51	CCc1nn2c(=O)cc(CSc3n[nH]c(-c4ccccc4C)n3)nc2s1	x	-0.67
52	CC1=C(c2ccccc2)S(=O)(=O)NC1=NC1CCCc2ccccc21 (configuration not stated)	-2.5	-0.97
53	O=C1C=CC(=O)N1c1ccc2c(c1)OCCO2	-1.8	x
54	Cn1c(=O)c2c(-c3ccc(Br)cc3)c(Nc3ccccc3)oc2n(C)c1=O	x	1.1
55	COc1ccc(C2CC(=O)Nc3nc(SCc4ccccc4)[nH]c(=O)c32)cc1Br (configuration not stated)	-0.72	0.73
56	C(#CCn1c2ccccc2c2ccccc21)CN1CCOCC1	0.71	x
57	Cc1ccc2oc(C(=O)N(Cc3ccc(C(C)C)cc3)C3CCS(=O)(=O)C3)cc(=O)c2c1 (configuration not stated)	-1.3	-0.78
58	Cc1ccc(C)c(C2CC(=O)Nc3c2c(C)nn3-c2nncc(-c3ccccc3)n2)c1 (configuration not stated)	0.71	2.1
59	CCS(=O)(=O)N1CCCc2ccc(NS(=O)(=O)c3ccc(C(C)C)cc3)cc21	x	0.6
60	CCC(C)N(C)C(=O)c1cc2ccccc2c(-c2ccccc2Cl)n1 (configuration not stated)	-1.5	x
61	Cn1c(=O)c2cn3c(c2n(C)c1=O)C(c1cccc(O)c1)Nc1ccccc1-3 (configuration not stated)	-0.94	2.2
62	COCCc1ccc(OCC(O)CNC(C)C)cc1 (configuration not stated)	-0.77	0.49
63	Cc1nn(C(C)C(=O)N2CCN(c3ccccn3)CC2)c(=O)c2c1sc1ccccc12 (configuration not stated)	1.3	1.1
64	c1ccc2c3c(ccc2c1)CNCc1ccc2ccccc2c1-3	-0.91	x
65	CN(C(=O)Nc1ccc(Cl)cc1)n1cnc2ccccc2c1=O	-2.1	x
66	Nc1ccc2nc(-c3cccnc3)[nH]c2c1	-2.2	4.1
67	COc1ccc(NC(=O)C(=O)/C=C(\O)c2ccccc2)cc1	-0.71	x
68	CC(=O)NC(CCS(C)(=O)=O)C(=O)Nc1ncn[nH]1 (configuration not stated)	-1.2	2.6
69	O=C(NC1CCCCC1)c1ccc(CNc2c(N3CCOCC3)c(=O)c2=O)cc1	-0.54	0.68
70	COc1cc(C2C=C(C(=O)O)Nc3ncnn32)ccc1OC(C)C (configuration not stated)	-0.64	1.1
71	Nc1ccc(Oc2c(F)c(F)c(Oc3ccc(N)cc3)c(F)c2F)cc1	-0.85	x
72	CCN(CC)CC(C)CNC(=O)c1c(O)nc2cc(C)ccn2c1=O (configuration not stated)	-1.2	0.48
73	Cc1ncc(-c2ccc(S(=O)(=O)Nc3ccc4c(c3)OCO4)cc2)o1	x	0.49
74	CC(c1ccccc1)C1CC(=O)N(Cc2ccccc2)C1=O (configuration not stated)	-0.56	1
75	Cc1cc(-n2cnc(SCc3ccccc3)n2)nc(N)n1	-2	1.9

Filtered by structure, those above with a COOH group
cpd	canonical_smiles	CDC25B CDK2 inh	HIV TAR-Tat
50	Cc1ccc(S(=O)(=O)N2CCC(C(=O)O)CC2)c2nsnc12	x	1.7
70	COc1cc(C2C=C(C(=O)O)Nc3ncnn32)ccc1OC(C)C (configuration not stated)	-0.64	1.1

Whole records, looked up by structure.
COCCc1ccc(OCC(O)CNC(C)C)cc1 (configuration not stated) as listed: CDC25B CDK2 inh = -0.77; HIV TAR-Tat = 0.49
Cc1ccc(C)c(C2CC(=O)Nc3c2c(C)nn3-c2nncc(-c3ccccc3)n2)c1 (configuration not stated) as listed: CDC25B CDK2 inh = 0.71; HIV TAR-Tat = 2.1
CC(=O)O[C@H]1CC[C@]2(C)C3CC(=O)[C@]4(C)C(C(C)=O)=CCC4C3CC[C@H]2C1 (some centres not stated) as listed: CDC25B CDK2 inh = x; HIV TAR-Tat = -1

(listing goes on)
cpd	canonical_smiles	CDC25B CDK2 inh	HIV TAR-Tat
76	CS(=O)(=O)c1ncc(Cl)c(C(=O)N(Cc2ccccc2)c2ccccn2)n1	-0.01	0.34
77	CCOc1ccc(C(C)=O)cc1OCC	-1.5	x
78	Cc1cc2c3c([nH]c2cc1S(=O)(=O)Nc1ccc(Cl)cn1)CC(C)(C)CC3=O	x	-0.27
79	O=C(CCc1nc2sc3c(c2c(=O)[nH]1)CCCC3)Nc1ccc(F)c(F)c1	x	-1.4
80	CC(C)n1c(=O)c2oc3ccccc3c2n(Cc2ccccc2)c1=O	x	2.1
81	Cn1nc(C(F)(F)F)cc1OC(=O)c1cccs1	-1.9	x
82	CC(C)(C)S(=O)(=O)/C(C#N)=C/Nc1ccc(OC(F)(F)F)cc1	-1.9	x
83	NC(=O)c1cc(Cl)c(C(=O)O)[nH]c1=O	-1.4	9.6
84	CC(C)Sc1ncnc2c1sc1nc(N3CCOCC3)c3c(c12)CC(C)(C)OC3	-0.86	x
85	COc1cc(OC)cc(C2=NC3(CCCC3)NC2=O)c1	-1.6	x
86	CN(c1c(-c2ccc3c(c2)OCC(=O)N3)c(=O)c1=O)C1CCCCC1	x	0.4
87	COc1cccc2c1OC(c1cccs1)N1N=C(c3ccccc3O)CC21 (configuration not stated)	-1.2	-0.25
88	Cc1nnc2c3c4c(sc3ncn12)CC(C)CC4 (configuration not stated)	-0.81	x
89	COCCOC(=O)Cn1nnc2sc3c(c2c1=O)CCC(C)C3 (configuration not stated)	0.25	1.3
90	Cc1nc(-c2ccc(S(=O)(=O)Nc3ccc4c(c3)OCCO4)cc2)co1	x	-0.51
91	COc1ccc(C2CC(c3cccc(OC)c3)n3nc(N)nc3N2)cc1 (configuration not stated)	-1.2	1.1
92	COc1ccc(CC2c3cc(OC)c(OC)cc3CC[N+]2(C)C)cc1OC (configuration not stated)	x	1.8
93	Cn1c2c(c(=O)n(C)c1=O)C(c1cccc(OC(=O)c3ccccc3)c1)C1=C(N2)c2ccccc2C1=O (configuration not stated)	0.58	-2.5
94	Cc1cc(=O)n2nc(N3CCC(C(=O)Nc4c(F)c(F)c(F)c(F)c4F)CC3)sc2n1	-1	x
95	Cc1ccc2nc3c(cc(C#N)c(=O)n3-c3ccc(C)c(C)c3)c(=O)n2c1	-3	-1.6
96	Cc1c(NC(=O)CCC(=O)O)c(=O)n(-c2ccccc2)n1C	0.99	2
97	CC(O)c1nc2ccccc2n1CCCOc1ccccc1 (configuration not stated)	-1	0.72
98	COc1nccnc1NS(=O)(=O)c1ccc(NCc2cc(Cl)ccc2O)cc1	0.58	-1.2
99	Cc1ccc(-c2csc(-c3ccccc3N)n2)cc1	-1	-2.7
100	Cc1ccc(Cn2c(=O)oc3ccccc32)cc1	-0.48	0.37
101	CCN1CCN(c2ncc(C(=O)NC3CC3)c(C)n2)CC1	x	1
102	CC1CN(c2nc(N)c([N+](=O)[O-])c(NCc3ccco3)n2)CC(C)O1 (configuration not stated)	x	0.32
103	Cc1c(CCC(=O)O)c(=O)oc2cc(O)ccc12	-1.3	x
104	C=C1C([C@]2(C)C(CC(=O)OC)[C@@](C)(COC(C)=O)OC(=O)C[C@@H]2OC(C)=O)[C@@H](OC=O)[C@H](OC(=O)C(O)C(C)CC)[C@@]2(C)[C@H](c3ccoc3)CC(=O)C12O (some centres not stated)	x	-1.2
105	COc1ccc(NS(=O)(=O)c2ccc(-c3cnc(C4CC4)o3)cc2)cc1OC	x	1.7
106	CCn1nc(C)c(CNC(=O)Nc2ccccc2Cl)c1C	x	0.3
107	CCS(=O)(=O)c1ncc(Cl)c(C(=O)N(Cc2ccc(C)cc2)C2CCS(=O)(=O)C2)n1 (configuration not stated)	-0.16	1.4
108	Cc1n[nH]c(C)c1Sc1ncccn1	-2.2	x
109	CCOC(=O)C1=C(C)N(c2ccc(OCC)cc2)C(=O)C1	-1.7	1.1
110	Cc1nc(N)n(C)c(=O)c1C	0.15	x
111	Cc1ccc(NS(=O)(=O)c2cc3[nH]c4c(c3cc2C)C(=O)CC(C)(C)C4)cc1	x	0.07
112	CN(Cc1nc2ccccc2n1CCc1ccccc1)S(=O)(=O)c1ccccc1	1.1	-0.4
113	Fc1ccc(OCc2nc(-c3ccc4c(c3)nnn4C3CCCC3)no2)cc1	x	1.4
